VACV Venus inh = vaccinia inhibition (Venus reporter); Vaccinia virus Venus reporter expression, fluorescence; AID 720580; Potency, µM (doses to about 36.5 µM), for the others: top-dose activity change, negative = inhibition, actives largely listed as inhibitors; hit rate 0.46% among 330,000; active means well fitted inhibition curve with a large enough effect; inconclusive means small, poorly fitted or top-dose-only effect; inactive means no such curve, though single readings can be large or run the other way; tested in A549 cells; note: nearly all actives have a fitted effect of over 30% in size; inactives centre near -10
Vaccinia mCherry = inhibitors of vaccinia virus infection (mCherry reporter signal). Vaccinia virus mCherry reporter infection, fluorescence; about a quarter of the inactives have no number. hit rate 0.63% among 310,000. Potency, µM (doses to about 36.5 µM), for inactives: top-dose activity change, negative = inhibition, most hits filed as inhibitors. AID 720579; active = well fitted inhibition curve with a large enough effect; inconclusive = small, poorly fitted or top-dose-only effect; inactive = no such curve, though single readings can be large or run the other way; tested in A549 cells; note: nearly all actives have a fitted effect of over 35% in size; inactives centre near -10
An asterisk follows results filed as active; i = inactive; ? = inconclusive; . = no result given; & = joins results of further samples; [ ] = another dose, or the depositor's remark. % is set by controls: 0 for no effect and ±100 for the full control effect; potency is the fitted concentration of half-maximal effect.

SMILES | VACV Venus inh | Vaccinia mCherry
O=C(O)c1ccc(N/N=C/C=C/c2ccccc2[N+](=O)[O-])cc1 | -6.8% | i
O=C(N/N=C/c1ccc(-c2cccc([N+](=O)[O-])c2)o1)c1cccs1 | 3.9% | -3.9%
CN(C)S(=O)(=O)c1ccc2c(c1)N(CC(=O)N1CCC(C(N)=O)CC1)CCS2 | 6.2% | 4.5%
COc1ccc(N2CCN(C(=O)NC(=O)c3ccc(Cl)cc3)CC2)cc1 | ? | ?
COc1ccc(C(C)=O)cc1CN1C(=O)C(C)ON=C1c1cccc(C(F)(F)F)c1 (stereo not drawn) | 1.8% | 9.3%
Cc1ccc(C(=O)CSc2ccc(-c3cccnc3)nn2)cc1 | -4.5% | i
CC(=O)N1CCN(S(=O)(=O)c2cccc(C(=O)NNC(=O)COc3ccc(F)cc3)c2)CC1 | -16.0% | -11.3%
CCCN1C(=O)c2ccccc2NC1c1ccc(OC)cc1OC (stereo not drawn) | -9.5% | -2.5%
COc1ccc(CNS(=O)(=O)c2cc3c(cc2C)n(C)c(=O)c(=O)n3C)cc1 | -5.8% | -10.7%
CCOC(=O)c1cc(CNC(=O)c2c(C)oc3c2CCCC3)c(C)o1 | -2.8% | 0.3%[1.46 µM]
COc1cccc(NC(=O)c2cccc(S(=O)(=O)N3CCN(Cc4ccccc4)CC3)c2)c1 | -19.2% | -11.2%
Cc1cc(C)cc(NC(=S)NCc2cccs2)c1 | -14.1% | -18.9%
CCCNC(=O)C1(C)CCCN(C(=O)c2cc3ccccc3s2)C1 (stereo not drawn) | -3.3% | -1.2%
CCOC(=O)c1c(N2C(=O)Nc3ccccc3N2O)n[nH]c1-c1cccc(Cl)c1 | -15.9% | -5.0%
CC(=O)Nc1cccc(C(=O)NNC(=O)c2n[nH]c(=O)c3ccccc23)c1 | -4.7% | i
CCN1CCN(Cc2c(O)ccc3oc(C)c(C(=O)Nc4ccc(C)cc4C)c23)CC1 | -4.2% | -11.0%
Fc1ccc2ncc3c(-c4ccccc4)n[nH]c3c2c1 | 2.4% | 2.4%
COc1ccc(-c2cc(C(F)(F)F)nc(NCc3ccccc3)n2)cc1OC | -9.1% | -12.2%
Clc1ccsc1-c1ccc2ccccc2n1 | -4.2% | -12.3%
Cc1sc2ncn(CC(=O)NCCCC(=O)N3CCN(c4ccccc4F)CC3)c(=O)c2c1C | -13.6% | i
COCCn1c(=NC(=O)c2nc3ccccc3s2)sc2cc(S(C)(=O)=O)ccc21 | -13.2% | -0.7%
CN(C)c1ccc(CNC(=O)C2(C)Cc3c(-c4cccc(C(N)=O)c4)ccnc3O2)cc1 (stereo not drawn) | -16.9% | 12.1%
Cc1cc(=O)oc2cc(NC(=O)C(C)N3C(=O)C4CCCCC4C3=O)ccc12 (stereo not drawn) | -0.3% | -11.7%
O=C(Nc1ccc(C(=O)OC2CCCCC2)cc1)c1ccncc1 | -8.9% | i
Cc1ccc(C)c(CN2C(=O)c3ccccc3S(=O)(=O)c3ccc(C(=O)NCCC4=CCCCC4)cc32)c1 | -10.3% | -6.5%
Cc1cc(C(C)(C)C)ccc1OC(=O)C1=CC=CN2CCS(=O)(=O)N=C12 | -11.2% | -12.4%
Cn1nc(C(=O)Nc2ccc(F)c(Cl)c2)c2c1-c1ccccc1S(=O)(=O)C2 | -8.7% | -14.8%
CC(C)OP(=O)(c1ccc(N(C)C)cc1)C(O)c1ccc(Br)cc1 (stereo not drawn) | 1.2% | -8.5%
Cc1ccsc1C(=O)N1CCC1(C)C(=O)NS(=O)(=O)c1ccccc1 (stereo not drawn) | 3.7% | i
CCN1C(=O)c2cccc3c(N)ccc1c23 | -14.9% | 2.2%
COc1ccc(CNc2oc(COc3cccc(C)c3)nc2C#N)cc1 | -4.8% | i
COc1ccc(C(=O)Oc2ccc(C(c3c(C)[nH][nH]c3=O)c3c(C)[nH][nH]c3=O)cc2)cc1 | 3.6% | -2.4%
C(CCc1nn[nH]n1)CCC1CCCCC1 | 1.6% | ?
CCCCn1c(N)c(N(CC(C)C)C(=O)c2cc(-c3ccncc3)nc3ccccc23)c(=O)[nH]c1=O | -2.4% | -10.1%
O=C(COc1ccc(F)cc1)Nc1ccccc1C(=O)OCc1cc(=O)n2ccsc2n1 | -24.7% | ?
CCOC(=O)CCc1c(C)nc2cc(-c3ccc(F)cc3)[nH]n2c1=O | 0.9% | .
O=C1CCCN1CCCNc1ncnc2c1[nH]c1ccc(Cl)cc12 | -21.9% | -11.5%[1.46 µM]
O=C(CN1CCN(Cc2ccccc2F)C1=O)NCc1cccnc1 | -7.6% | i
CCOC(=O)N1CCc2c(sc3c2c(=O)n(Cc2ccccc2)c(=O)n3Cc2ccc(C)cc2)C1 | -11.2%&-9.4% | -17.6%&-28.5%
CC1CCCN(CC(O)COCc2ccc3c(c2)OCO3)C1 (stereo not drawn) | -3.4% | -11.2%

Whole records as entered above. Order of values: VACV Venus inh | Vaccinia mCherry
O=C(CN1CCN(Cc2ccccc2F)C1=O)NCc1cccnc1 in the list: -7.6% | i
CCOC(=O)CCc1c(C)nc2cc(-c3ccc(F)cc3)[nH]n2c1=O in the list: 0.9% | .

Going on with the list.
SMILES | VACV Venus inh | Vaccinia mCherry
COc1ccccc1CNC(=O)Cc1ccc(Br)cc1 | -26.8% | i
Cc1c(Cl)cccc1NC(=O)Cn1c(=O)cc(C)c2c(C)nn(-c3cccc(F)c3)c21 | -0.9% | -3.8%
CC(=O)n1c(Cl)c(NC(=O)CCl)c2ccccc21 | ? | 10µM*
COc1ccc(-c2nc3n(n2)C(c2ccccc2F)C(C(=O)Nc2cccnc2)=C(C)N3)cc1OC (stereo not drawn) | -2.8% | -5.3%
O=C(C1CC1)N1CCN(c2nc3ccc(F)cc3s2)CC1 | -15.1% | -17.4%
COc1ccccc1CNC(=O)CSc1nc(=O)[nH]c2c1CCC2 | -6.3%[7.34 µM] | -6.0%[7.34 µM]
COc1cccc(C(C(=O)NC(C)(C)C)N(C(=O)CCC(=O)Nc2cc(C)on2)c2ccc3c(c2)OCCO3)c1OC (stereo not drawn) | 0.7% | -3.5%
CCC(C)C(=O)c1c(O)c(C)c2oc3c(C)c(O)c(C(=O)C(C)CC)c(O)c3c2c1O (stereo not drawn) | 21.8% | 11.8%
O=C(O)c1[nH]c2ccccc2c1-c1ccccc1 | -1.2% | -11.9%
CC(C)(C)NC(=O)NC(=O)CN1CCN(c2ccccc2O)CC1 | -5.5% | -3.4%
COc1ccccc1CNC(=O)COC(=O)CSc1ccc(C)c(C)c1 | 1.1% | -20.5%
Nn1c(SCC(=O)Nc2c(Cl)cccc2Cl)nncc1=O | 3.0% | -19.9%
CC(C)c1ccc(NC(=O)CN2CCN(C(=O)C3CCCO3)CC2)cc1 (stereo not drawn) | -18.6% | -13.0%
O=C(Oc1ccc2c(c1)OCO2)c1cccs1 | -2.9% | -10.3%
CCCS(=O)(=O)NC(=O)C1(C)CCCN(C(=O)c2ccccc2C(F)(F)F)C1 (stereo not drawn) | 2.9% | 1.8%
Cc1ccc(OCC(=O)NC2CCS(=O)(=O)C2)cc1 (stereo not drawn) | -8.7% | i
Cc1cc2nc(-c3cccc(Cl)c3)c(Cc3cccc(Cl)c3)n2c(C)c1Br | 2.6% | 41.2%[activator]
O=C(Cn1cnnn1)NCCc1ccc(Cl)cc1Cl | 2.8% | 52.1%[activator]
COc1cc2c(cc1OC)-c1c3c(cc4c1[C@@H](C2)N(C)CC4)OCO3 | -12.8% | ?
COc1ccccc1NS(=O)(=O)c1ccc(N2CCOCC2)c(N)c1 | -7.2% | -14.1%

Random excerpt: three entries already listed, in no set order.
SMILES | VACV Venus inh | Vaccinia mCherry
COc1cc2c(cc1OC)-c1c3c(cc4c1[C@@H](C2)N(C)CC4)OCO3 | -12.8% | ?
CCCS(=O)(=O)NC(=O)C1(C)CCCN(C(=O)c2ccccc2C(F)(F)F)C1 (stereo not drawn) | 2.9% | 1.8%
Cc1cc2nc(-c3cccc(Cl)c3)c(Cc3cccc(Cl)c3)n2c(C)c1Br | 2.6% | 41.2%[activator]

The list goes on.
SMILES | VACV Venus inh | Vaccinia mCherry
CC(=O)c1cccc(NC(=O)CCc2c(C)nc3c(-c4ccc(F)cc4)c(C)nn3c2C)c1 | -12.8% | -6.4%
COc1ccc(C2C(C(=O)NCc3ccccn3)CCC(=O)N2c2cc(OC)c(OC)c(OC)c2)cc1 (stereo not drawn) | 13.1% | i
Cc1cc(S(=O)(=O)/N=C(\N)c2ccc(C(N)=O)cc2)cc(C)c1F | 0.2% | i
COc1ccc(N2CC(NC(=O)c3ccc4c(c3)OCO4)CC2=O)cc1 (stereo not drawn) | -8.8%[7.34 µM] | -9.2%[7.34 µM]
COc1ccc(C(=NN)c2ccc(OC)cc2)cc1 | 13.5% | -6.4%
O=C(NN1C(=O)C2C(C1=O)C1C=CC2C12CC2)c1ccc(Cl)cc1 (stereo not drawn) | -21.7% | -18.5%
CCOP1(=O)OCC2OC(n3cnc4c(N)ncnc43)C(O)C2O1 (stereo not drawn) | 5.2% | -23.0%
CC(C)Sc1ncc(S(=O)(=O)c2ccccc2)c(=O)[nH]1 | -12.8% | -14.7%
Cc1ccc(C)c(S(=O)(=O)N2CCN(C(=O)c3cccnc3)CC2)c1 | -16.8% | -1.0%
CCc1nc2ccc(C(=O)NCCOc3ccc(OC)cc3)cn2c1N(C)C(=O)C1CCCCC1 | 4.8% | 59.8%[activator]

Of the compounds above, these have two or more sulfur atoms:
SMILES | VACV Venus inh | Vaccinia mCherry
CN(C)S(=O)(=O)c1ccc2c(c1)N(CC(=O)N1CCC(C(N)=O)CC1)CCS2 | 6.2% | 4.5%
Cc1cc(C)cc(NC(=S)NCc2cccs2)c1 | -14.1% | -18.9%
COCCn1c(=NC(=O)c2nc3ccccc3s2)sc2cc(S(C)(=O)=O)ccc21 | -13.2% | -0.7%
Cc1ccsc1C(=O)N1CCC1(C)C(=O)NS(=O)(=O)c1ccccc1 (stereo not drawn) | 3.7% | i
CC(C)Sc1ncc(S(=O)(=O)c2ccccc2)c(=O)[nH]1 | -12.8% | -14.7%

Other records.
SMILES | VACV Venus inh | Vaccinia mCherry
N#C/C(=C\c1ccc(OCc2ccc(C(=O)O)cc2)cc1)C(=O)NCc1ccccc1 | -15.3% | i
Cc1cc(C)c(CSc2nnc(C)n3c2cc2occc23)c(C)c1 | -19.5% | -18.4%
Cc1ccc(OCC(=O)NNC(=O)c2ccc(-n3cncn3)c([N+](=O)[O-])c2)cc1 | -5.6% | -17.7%
CCNC(=O)C1CC(=O)N(CCCc2ccccc2)C(=Nc2ccccc2)S1 (stereo not drawn) | 4.6% | -7.7%
CN(CC(=O)N1CCN(c2ccccc2)CC1)C1CCCc2ccccc21 (stereo not drawn) | -6.1% | ?
Cc1ccc2oc(-c3ccc(C)c(NC(=O)c4ccc(C(C)(C)C)cc4)c3)nc2c1 | -1.2% | -6.8%
COc1ccc(C2CC(=O)OC3=C2C(=O)CC(C)(C)C3)c(OC)c1 (stereo not drawn) | -5.3% | -1.3%
COc1ccc(N2CCN(C(=O)c3nc(-c4ccc(Cl)cc4)n4c3CCCCC4)CC2)cc1 | -15.5% | ?
Cc1cc2[nH]c(=O)c(=O)[nH]c2cc1S(=O)(=O)Nc1ccc(OC(F)(F)F)cc1 | -1.3% | 5.7%
Cc1nn(-c2ccccc2)c(N2CCCCC2)c1/C=N/NC(=O)c1ccncc1 | 0.5% | -4.0%
O=C(N/N=C/c1cccc([N+](=O)[O-])c1)c1c[nH]c2ccccc12 | -14.8% | -24.3%
c1ccc(-n2cnc3cc(NCc4ccccn4)ccc32)cc1 | -8.6% | i
CCc1cc(C(=O)c2ccc(OC)cc2)c(NC(=O)CN2CCN(C)CC2)s1 | 11.9% | -2.1%
CC(=O)Nc1ccc(-c2nc3cc(Cl)ccc3o2)cc1 | -11.6% | -10.5%
CCOc1ccc(CN(C)CC(=O)NCc2ccccc2Cl)cc1 | -11.7% | -2.5%
CC(O)C(NC(=O)OCc1ccccc1)C(=O)NCC(=O)NCC(=O)OCc1ccccc1 (stereo not drawn) | -2.7% | -3.0%
COc1ccc(NC(=O)CN(c2cc(C)cc(C)c2)S(=O)(=O)c2c(C)noc2C)cc1Cl | -1.5% | -13.8%
COC(=O)CSc1nnc(CNS(=O)(=O)c2ccc(C)cc2)n1C | -5.5% | .
NC(=O)COC(=O)c1ccccc1OCc1ccc(Cl)cc1 | -3.2% | i
Cc1ccccc1NC(=O)C1CCCN(S(=O)(=O)c2c(C)noc2C)C1 (stereo not drawn) | -1.0% | -4.8%
COCCNc1nc(-c2cc(-c3ccc(Cl)cc3)on2)cc(C(C)C)n1 | -9.5% | i
COc1ccc(-c2nnc(SCC(=O)N3CCCCC3)o2)cc1OC | -1.8% | -7.9%
O=C1C=C(Nc2ccc(Cl)cc2)CC(c2ccc(Cl)cc2)C1 (stereo not drawn) | ? | ?
CCn1c(C)c(C)c2cc(C(=O)NCCCN3CCCCCC3)ccc21 | ? | ?
CCCOc1ccc(C(=O)CCC(=O)OC(C)C(=O)Nc2ccc(NC(C)=O)cc2)cc1 (stereo not drawn) | -7.8% | i
CCn1c(/N=C/c2ccccc2NS(=O)(=O)c2ccc(C)cc2)nc2ccccc21 | -11.4% | i
Cc1nnc(SCc2nc3ccccc3s2)n1-c1ccccc1 | -3.7% | -5.2%
COc1ccc(NC(=O)CSc2nc(O)cc(=O)n2-c2ccc(OC)cc2)cc1 | -7.9% | i
CC1=NC(C(F)(F)F)(C(F)(F)F)C2=C(CC(C)(C)CC2=O)N1Cc1ccco1 | -15.6% | -17.6%
COc1ccc(CCNC(=O)CCc2ccsc2)cc1OC | -28.9% | -22.5%
CCC/C=N/NC(=O)C1COc2ccccc2O1 (stereo not drawn) | -15.6% | -11.9%
CCn1c(N)c(C(=O)NCC2CCCO2)sc1=S (stereo not drawn) | -4.4% | .

Rows were taken by chance (roughly 0.86% active in at least one column).
